# SARS PLpro yeast – qHTS of Yeast-based Assay for SARS-CoV PLP; 330,000 tested, 0.19% active; S. cerevisiae expressing SARS-CoV PLpro, growth rescue; control for the full effect not named in the record; Potency, µM (doses to about 32.9 µM), without a hit: at the highest dose activity, positive = growth rescue; further: 0% is about no effect; nearly all actives have a fitted effect of over 55% in size; growth read by luminescence after 48 h
# Marburg entry inh – qHTS for inhibitors of binding or entry into cells for Marburg Virus; Marburg virus pseudotyped entry inhibition, cell reporter; control for the full effect not named in the record; about a third of the inactives were read at about 46 µM; Potency, µM (top dose mostly 37.8 µM), for the others: at the highest dose activity change, negative = inhibition, usual class: inhibitors; 300,000 tested, 1.8% active; AID 540276, 2011; active = well fitted inhibition curve with a large enough effect; inconclusive = small, poorly fitted or top-dose-only effect, or effect the other way; inactive = flat fitted curve, though single readings scatter; tested in HEK293 cells; about a fifth of its hits are not listed in these tables; further: on the % scale 0 is the no-effect control and ±100 the full control effect; luciferase read-out
# Cruzain noTriton – qHTS Assay for Promiscuous and Specific Inhibitors of Cruzain (without detergent) | Cruzipain (Trypanosoma cruzi), P25779 | purified cruzain, Z-FR-AMC fluorescence, no detergent | Potency, µM, without a hit: max response, negative = inhibition, actives largely listed as inhibitors | 200,000 tested, 2.3% active | AID 1476, 2009; active means well fitted curve in the direction sought with a large enough effect; inconclusive means small, poorly fitted or top-dose-only effect, or another doubt; inactive means no such curve, though single readings can be large; an effect the other way counts as inactive or inconclusive;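 further: plate controls were enzyme without inhibitor for no effect and buffer without enzyme for full effect; nearly all actives have a fitted effect of over 40% in size; top concentration of the series not given in the record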
# Target sequence (P25779 123-467 limits assumed): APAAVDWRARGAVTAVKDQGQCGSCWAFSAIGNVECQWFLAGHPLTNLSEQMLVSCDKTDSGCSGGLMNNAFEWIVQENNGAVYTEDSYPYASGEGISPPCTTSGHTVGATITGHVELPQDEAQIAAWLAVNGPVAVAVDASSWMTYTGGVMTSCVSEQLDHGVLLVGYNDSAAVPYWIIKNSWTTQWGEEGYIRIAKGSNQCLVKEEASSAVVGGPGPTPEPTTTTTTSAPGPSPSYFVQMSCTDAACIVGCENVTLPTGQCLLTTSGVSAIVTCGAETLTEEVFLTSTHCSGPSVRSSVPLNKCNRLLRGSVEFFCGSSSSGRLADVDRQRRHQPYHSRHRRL
#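 Purified cruzain at 1.5 nM, pre-incubated 15 min with compound at room temperature in 100 mM sodium acetate pH 5.5, 5 mM DTT, 0.00005% Triton X-100. Reaction started with 2 uM Z-FR-AMC; AMC fluorescence increase over 60 s gives rate.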
# LASV entry inh – qHTS for Inhibitors of binding or entry into cells for Lassa Virus | 300,000 tested, 1.2% active | Lassa virus pseudotype entry inhibition, cell reporter; control for the full effect not named in the record | Potency, µM (doses to about 37.9 µM), without a hit: at the top dose activity change, negative = inhibition, hits mostly inhibitors | AID 540256, 2011; active means well fitted inhibition curve with a large enough effect; inconclusive means small, poorly fitted or top-dose-only effect, or effect the other way; inactive means flat fitted curve, though single readings scatter; tested in HEK293 cells; further: on the % scale 0 is the no-effect control and ±100 the full control effect; nearly all actives have a fitted effect of over 50% in size; luciferase read-out
# Cruzain inh Det – qHTS Assay for Promiscuous and Specific Inhibitors of Cruzain (with detergent); Cruzipain (Trypanosoma cruzi), P25779; purified cruzain, Z-FR-AMC fluorescence, 0.01% Triton; Potency, µM, for inactives: max response, negative = inhibition, hits mostly inhibitors; 200,000 tested, 0.43% active; active means well fitted curve in the direction sought with a large enough effect; inconclusive means small, poorly fitted or top-dose-only effect, or another doubt; inactive means no such curve, though single readings can be large; an effect the other way counts as inactive or inconclusive;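 further: plate controls were neutral wells for no effect and buffer without enzyme for full effect; nearly all actives have a fitted effect of over 40% in size; top concentration of the series not given in the record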
#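 Enzyme 1.5 nM, Z-FR-AMC 2 uM, NaOAc 100 mM pH 5.5, DTT 5 mM, Triton X-100 0.01%; 15 min RT compound preincubation; kinetic ex360/em450, 60 s delta.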
# NS1 function inh – qHTS Assay for Inhibitors of Influenza NS1 Protein Function | Potency, µM (highest dose often 46.1 µM), without a hit: at the top dose activity, positive = more growth | AID 2326, 2010 | S. cerevisiae slowed by influenza A NS1, growth recovery by OD600 | 270,000 tested, 0.4% active; further: actives are rising curves; nearly all actives have a fitted effect of over 50% in size
#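 OD600 was taken as the measure of yeast growth restored by compound in an NS1-expressing S. cerevisiae strain. Cells had been washed out of glucose medium and diluted 1:100 into galactose -URA medium, pH 6.0.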
# RE007 growth inh – qHTS Assay for Inhibitors of the HIV-1 protein Vpr; S. pombe RE007 Vpr strain, BacTiter-Glo ATP luminescence, 24 h; control for the full effect not named in the record; Potency, µM (doses to about 92.2 µM), for the others: at the top dose activity change, negative = less growth; 360,000 tested, 0.21% active; AID 651644, 2012; active = well fitted falling curve with a large enough effect; inconclusive = small, poorly fitted or top-dose-only effect; inactive = no such curve, though single readings can be large or run the other way;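 further: on the % scale 0 is the no-effect control and ±100 the full control effect; nearly all actives have a fitted effect of over 50% in size; the assay follows cell death caused by Vpr and the record does not say whether a fall means rescue or toxicity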
#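 Fission yeast RE007 carrying one integrated HIV-1 vpr copy, seeded at OD 0.01 in PMG+AL medium with 23 nL pinned compound. Grown 24 h at 30 degrees; viability read by BacTiter-Glo luminescence after 5 min.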
# 2A StopGo – High Throughput Screening for Foot and Mouth Disease Virus Antivirals | human cells with a luciferase reporter of 2A StopGo recoding; control for the full effect not named in the record | Potency, µM (titrated, usually from 57.9 µM), for the others: at the highest dose signal change, negative = less light | 410,000 tested, 1.2% active | AID 1159524, 2015; active = well fitted falling curve with a large enough effect; inconclusive = small, poorly fitted or top-dose-only effect; inactive = no such curve, though single readings can be large or run the other way; tested in HEK293T cells; further: on the % scale 0 is the no-effect control and ±100 the full control effect; nearly all actives have a fitted effect of over 45% in size; luciferase light after 4 h
# Numbers without * were called inactive; ? = inconclusive; nt = no result given; & = joins results of further samples; [ ] = another dose, or the depositor's remark. Unless noted, the call rests on the fitted dose curve; in most records, active means well fitted rising curve with a large enough effect; inconclusive means small, poorly fitted or top-dose-only effect; inactive means no such curve, though single readings can be large or run the other way. Potency means the concentration at half of the fitted maximal effect. Compounds were not picked by outcome (roughly 4.7% active in at least one column).
SMILES,SARS PLpro yeast,Marburg entry inh,Cruzain noTriton,LASV entry inh,Cruzain inh Det,NS1 function inh,RE007 growth inh,2A StopGo
O=C(c1ccco1)N1CCN(c2ccc(F)cc2)CC1,0%,-1%,nt,-1%,nt,-7%,-7%,-19%
CC1([N+](=O)[O-])COP(=O)(Nc2cccc(F)c2)OC1 (stereo unspecified),nt,13%,nt,10%,nt,nt,2%,-13%
CN1CC(=O)N=C1N,-17%,nt,2%,nt,0.8%,15%,-2%&2%[18.4 µM],-23%&-23%
COc1ccccc1-c1nnc2sc(-c3cnccn3)nn12,3%,-13%,-10%,21%,3.9%,?,-13%,-4%
COc1cc(C(=O)N2CCC(O)(c3ccccc3)CC2)cc(OC)c1OC,8%,7%,12%,15%,4.4%,-1%,0%,39%[activator]
CCOc1ccc(C2N3CC4(C(C)C)CN2CC(C(C)C)(C3)C4=O)cc1OC (stereo unspecified),nt,-12%[46.1 µM],-15%,7%[46.1 µM],0.8%,nt,nt,-20%
CCCCN(C(=O)CSCC(=O)Nc1ccc(C)cc1)c1c(N)n(Cc2ccccc2)c(=O)[nH]c1=O,8%,1%,nt,2%,nt,nt,14%,0%
CCN(C(=O)CSc1nc2ccccc2c2nc(CCn3c(C)nc4ccccc43)nn12)c1cccc(C)c1,nt,nt,?,3%[46.1 µM],1.2%,nt,nt,-13%
Cc1ccc(S(=O)(=O)N2CCN(C(C)C(=O)N3CCCc4ccccc43)CC2)cc1 (stereo unspecified),-7%,-13%,-5%,?,0.7%,6%,1%,?
CCCOCCOC(=O)c1[nH]c2c(c1C)C(=O)CC(c1cc(OC)ccc1OC)C2 (stereo unspecified),-9%,nt,24%,nt,-7.4%,-12%,11%,?
O=C(Cc1ccc(NC(=O)N2CCCCc3ccccc32)cc1)Nc1ccccc1Br,nt,nt,?,-19%[46.1 µM],-4.0%,nt,nt,-7%
COc1ccccc1CNC(=O)COn1nnc2ccc(S(=O)(=O)N3CCOCC3)cc21,-3%,?,nt,-1%,nt,nt,-23%,0%
Cc1ccc(C)c(N2CCN(C(=O)c3cn(CC(C)C)c(=O)c4c3c3ccccc3n4C)CC2)c1,nt,-3%[46.1 µM],-10%,?,-0.8%,nt,nt,?
Cc1ccc(NC(=S)N2CCN(S(C)(=O)=O)CC2)cc1C,0%,4%[46.1 µM],nt,-9%[46.1 µM],nt,3%,17%,8%
Cc1ccnc2nc(C(=O)OCC(=O)NC3CCC(C)CC3)nn12 (stereo unspecified),-6%,-5%,nt,10%,nt,nt,3%,-15%
CCc1nonc1NC(=O)COc1cc(C)c(Cl)c(C)c1,-6%,nt,nt,nt,nt,-24%,31%,-10%
COc1ccc(-c2csc(Nc3cccc(C)n3)n2)cc1,-4%,?,nt,nt,nt,2%,4%,15%
COc1cccc(C2=NOC(C(=O)N3CCN(Cc4ccccc4)CC3)C2)c1OC (stereo unspecified),-1%,11%,2%,-18%,-2.7%,-15%,-21%,0%
COc1ccc(OCCCCn2c(-c3ccc(Cl)cc3)nc3ccccc3c2=O)cc1,nt,4%[46.1 µM],5%,0%[46.1 µM],-1.5%,nt,nt,-12%
CC(C)CCN(C(=O)Nc1ccc(Cl)cc1)C1CCN(C(C)C)CC1,-1%,?,nt,?,nt,nt,-2%,5%
O=C(O)C(Cc1ccc(Cl)cc1)Sc1nc2ccccc2[nH]1 (stereo unspecified),-2%,-4%[46.1 µM],nt,-15%[46.1 µM],nt,0%,-20%,-9%
Cc1ccc(/C=C/C(=O)c2c(C)cc(C)[nH]c2=O)cc1,-12%,23µM*,-6%,?,-5.1%,6%,4%,?
Cc1ccc(S(=O)(=O)NCc2c(-c3ccccc3)c3cc(Cl)ccc3[nH]c2=O)cc1,0%,0%,?,4%,-5.4%,4%,5%,-28%
COc1ccc(NC(=O)c2sc3nc4c(c(-c5ccc(OC)cc5)c3c2N)C(=O)CC(C)(C)C4)cc1,nt,-6%[46.1 µM],-16%,-1%[46.1 µM],-3.6%,nt,nt,-19%
Cc1ccc(C2=NC(=O)/C(=C/c3cc(O)c(O)c(Br)c3)S2)cc1,6.3µM*,?,nt,-4%[46.1 µM],nt,nt,-5%,?
COc1ccc(O)c(CN2CCC(n3nccc3NC(=O)C3CCCC3)CC2)c1,2%,?,nt,9%,nt,6%,-11%,-16%
CCCCCN(C(=O)CCC(=O)OCCOc1ccccc1Cl)c1c(N)n(CCCC)c(=O)[nH]c1=O,3%,-29%,nt,?,nt,nt,-5%,-24%
COc1ccc2oc(-c3ccc(C)c(NC(=O)c4sc5ccccc5c4Cl)c3)nc2c1,nt,-5%[46.1 µM],-8%,24%[46.1 µM],-0.2%,nt,nt,3%
CCCCC12CN3CC(C)(CN(C1)C3c1ccc([N+](=O)[O-])o1)C2=O (stereo unspecified),1%,nt,nt,nt,nt,-4%,2%,-21%
CCCCCNC(=O)c1ccc2c(c1)ncn2-c1ccc(OC)cc1,-3%,?,nt,?,nt,-5%,0%,16%
COc1ccc(NC(=O)COC(=O)[C@@H]2CCCN2S(=O)(=O)c2ccccc2F)c(OC)c1,5%,-2%[46.1 µM],nt,1%[46.1 µM],nt,nt,-3%,-4%
O=C(CSc1ccc(-c2ccco2)nn1)NCc1ccc2c(c1)OCO2,-2%,-7%[46.1 µM],nt,-3%,nt,nt,11%,-1%
COc1ccc(C(=O)NCc2nnc(SCC(=O)c3ccccc3)n2C)cc1,0%,-2%[46.1 µM],nt,?,nt,0%,1%,-1%
CCOC(=O)C1CCCN(c2nc3c(S(=O)(=O)c4ccc(CC)cc4)nnn3c3ccsc23)C1 (stereo unspecified),nt,nt,0%,-17%[46.1 µM],-7.1%,nt,nt,-3%
O=c1c(-c2ccc3c(c2)OCCO3)coc2cc(O)cc(O)c12,-19%,-24%,-11%,-21%,-1.3%,-91%,-19%,44%[activator]
CCN(CC)c1ccc(CN(C(=O)c2cc(=O)c3ccccc3o2)C2CCS(=O)(=O)C2)cc1 (stereo unspecified),nt,0%[46.1 µM],-14%,-9%[46.1 µM],-3.3%,nt,nt,0%
Cc1ccc(S(=O)(=O)N2CCC(=O)N(C(CO)C(C)C)CC2)cc1 (stereo unspecified),1%,-4%,-5%,-7%,0.0%,?,3%,-8%
CC1Oc2ccccc2N(Cc2ccc(F)cc2)C1=O (stereo unspecified),0%,26%[46.1 µM],nt,18%[46.1 µM],nt,3%,1%,42%[activator]
Cc1ccc2nc(SCc3cn4c(C)cc(C)nc4n3)[nH]c2c1,4%,nt,6%,nt,-3.3%,-6%,nt,nt
CC(C)(C)c1ccc(Oc2ccc(NC(=O)c3cccs3)cn2)cc1,-4%,13µM*,nt,?,nt,-6%,-15%,13µM*
COc1ccc(NC(=O)C2CCN(c3cc(-c4ccccc4)nc4ncnn34)CC2)cc1OC,-2%,-10%,?,?,-2.8%,-21%,-9%,?
CCC(=O)Nc1nc2nc(C)cc(=O)n2[nH]1,?,11%,-8%,0%,18%,6%,0%,0%
CCN(CC)C(=O)c1c(NC(=O)c2ccccc2)sc(C)c1C,1%,-1%[46.1 µM],-4%,2%,1.5%,13%,-2%,13%
O=C(CSCc1ccccc1)N1CCN(c2cccc(C(F)(F)F)c2)CC1,-24%,-3%,8%,4%,-5.4%,17%,1%,-12%
O=C(NCc1ccco1)C1CCCN(S(=O)(=O)c2ccccc2)C1 (stereo unspecified),-3%,?,1%,3%,1.3%,4%,-12%,-12%
COc1ccc(NC(=O)/C(C#N)=C\c2cc(C)n(-c3ccc4c(c3)OCO4)c2C)cc1,4%,-29%[46.1 µM],?,?,-0.2%,15%,-5%,?
COc1cc(C(=O)N/N=C\c2ccccc2)c([N+](=O)[O-])c(OC)c1OC,16%,-34%,-4%,6%,-5.1%,11%,-1%,34%[activator]
CC(Oc1cc(-c2ccccc2)cc2ccccc12)C(=O)N1CCOCC1 (stereo unspecified),6%,-1%,?,1%,-1.1%,-9%,-4%,-17%
CCCCN(CC)CCNC(=O)c1cc2c(-c3ccc(Cl)cc3)nn(C)c2s1,1%,3.5µM*,-9%,?,-12%,-7%,-21%,3%&-18%
CCOC(=O)C1CCN(C(=O)COc2ccc(Br)cc2)CC1,1%,?,6%,2%,-2.4%,-11%,-18%,-13%
N#C/C(=C/c1ccccc1[N+](=O)[O-])c1nc(C2CC2)cs1,-28%,-4%,-8%,-15%,-7.0%,-17%,-2%,19%
NCCc1ccc(OCc2ccccc2)c(OCc2ccccc2)c1,-2%,?,nt,?,nt,nt,12%,-23%
COc1ccccc1NC(=O)c1cc2c(CO)cnc(C)c2oc1=Nc1ccccc1,2%,14%,nt,10%,nt,-2%,7%,-16%
CC(C)OC(=O)Nc1ccc2c(c1)N(C(=O)CCN1CCOCC1)c1ccccc1CC2,1%,7%[46.1 µM],nt,-8%,nt,-5%,-21%,15%
CCOc1ccc(-c2nnc(SCC(=O)Nc3cc(C)on3)o2)cc1,1%,?,nt,-23%,nt,nt,4%,0%
CCOc1ccc(C(=S)N2CCOCC2)cc1OCC,6%,-8%,6%,-22%,3.4%,8%,-5%,10%
Cc1ccc(-c2noc(CCCC(=O)N3CCOCC3)n2)cc1,3%,-25%,6%,2%,0.8%,-4%,3%,-18%
Cc1ccc(N2CCN(C(=O)c3ccccc3)CC2)c(C)c1,-3%,-6%,-2%,22%,2.3%,-50%,11%,0%
O=c1c2c(n3cnnc3n1-c1ccccc1)-c1ccccc1CC21CCCCC1,1%,-21%,5%,-30%,-1.5%,11%,1%,-18%
O=C(CCSc1nc(-c2ccco2)cc(C(F)(F)F)n1)Nc1cccc(O)c1,nt,-3%[46.1 µM],2%,-9%[46.1 µM],-13%,nt,nt,?
Cc1cc(C(=O)OCC(=O)N2CCc3ccccc32)ccc1[N+](=O)[O-],-1%,-1%,nt,15%,nt,nt,-15%,-5%
CCOC(=O)CN(C(=O)CSc1nnc2c(n1)[nH]c1ccccc12)c1ccccc1,1%,-24%,6%,-23%,-4.1%,-7%,-8%,?

# Screening data as filed in PubChem BioAssay.
